Source: PubChem BioAssay (National Center for Advancing Translational Sciences (NCATS))
TRPML1 blocker: human mucolipin-1 channel inhibition | TRPML1-inducible cells, Ca2+ dye fluorescence, FDSS; active compounds read low; inhibition of EC80 agonist-evoked calcium signal | actives 0.02% (n = 390,000) | Q9GZU1 | activity change, negative = inhibition, % (concentration not given with the values); in the data active means activity change below about -50%; inconclusive means about -30% to -50%; inactive means above about -30%;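 further: stimulus is agonist 54-4 at its EC80 concentration; on the % scale 0 is the no-effect control and ±100 the full control effect; the text of the record puts the active cut at -80%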
Target sequence (Q9GZU1 whole entry, looked up): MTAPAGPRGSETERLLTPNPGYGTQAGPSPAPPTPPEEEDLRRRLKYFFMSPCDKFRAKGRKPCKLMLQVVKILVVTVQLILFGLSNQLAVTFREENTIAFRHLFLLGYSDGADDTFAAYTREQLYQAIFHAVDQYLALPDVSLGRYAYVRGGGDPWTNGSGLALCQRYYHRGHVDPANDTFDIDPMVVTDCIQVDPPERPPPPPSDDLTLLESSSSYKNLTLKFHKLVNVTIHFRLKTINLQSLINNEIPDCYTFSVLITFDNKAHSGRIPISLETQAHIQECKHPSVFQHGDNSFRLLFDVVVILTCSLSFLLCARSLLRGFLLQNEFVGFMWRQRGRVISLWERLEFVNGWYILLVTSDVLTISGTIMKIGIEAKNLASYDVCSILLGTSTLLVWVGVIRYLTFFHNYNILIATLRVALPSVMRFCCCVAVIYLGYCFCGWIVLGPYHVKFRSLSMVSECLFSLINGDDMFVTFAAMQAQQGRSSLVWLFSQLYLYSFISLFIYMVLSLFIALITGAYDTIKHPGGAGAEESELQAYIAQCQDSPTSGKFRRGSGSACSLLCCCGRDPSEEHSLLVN
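TRPML1-DL cells, Tet-induced overnight (~16 h, 37 °C) at 1,500 cells/well, were loaded with Ca8 no-wash dye plus quencher for 45-90 min at room temperature. Compounds were pinned during FDSS kinetic reading; agonist 54-4 at EC80 (4 uM final) then added.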
TRPML1 ag: agonists of human TRPML1 channel. activation, % (test concentration not listed). TRPML1-expressing cells, Ca2+ dye fluorescence, FDSS; host cell line not named in the record; reference of the full effect not given here. actives 0.12% (n = 410,000); in the data active = activation above about 50%; inconclusive = about 30% to 50%; inactive = below about 30%; further: 0% is about no effect; the text of the record puts the active cut at 80%
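Tetracycline-induced TRPML1-DL cells are seeded and incubated overnight before loading with a no-wash Ca2+ dye and quencher. Agonist activity is taken from the 110 s fluorescence read following compound pin-transfer on an FDSS, before EC80 54-4 challenge.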
* marks the source's active call; other numbers are inactive results; u = inconclusive. An excerpt, so the mix of outcomes need not match the whole.

Structure	TRPML1 ag	TRPML1 blocker
COc1ccc(NC(=O)Cn2ncc3c2-c2ccccc2OC3)cc1Cl	-0.4	2
CC(Oc1ccc(Br)cc1)C(=O)Nc1ncn[nH]1 (stereo not given)	-0.6	11
Cc1ccc(SCCNC(=O)CN(c2cccc(C)c2C)S(C)(=O)=O)cc1	-0.9	15
COc1ccc2c(c1)CCc1c(C(=O)Nc3ccc(OC)cc3OC)noc1-2	1.5	31
CCCc1nn2c(=O)cc(COC(=O)c3cccc(NC(=O)c4cccs4)c3)nc2s1	0.8	-3
CN(C)S(=O)(=O)c1ccc2c(c1)N(CC(=O)NCc1cccc(Br)c1)C(=O)CS2	-0.3	1
Cc1ccc(C)c(OCC(=O)Nc2ccc(S(=O)(=O)Nc3onc(C)c3C)cc2)c1C	0.1	2
O=C(Nc1nc2ccc(Cl)cc2s1)c1ccc(S(=O)(=O)N2CCCC2)cc1	0.5	2
COCCNC(=O)c1cnc2sc(N3CCC(C)CC3)nn2c1=O	-0.9	1
COc1ccc(OC)c(NC(=O)c2cc(=O)c3c(C)cc(C)cc3o2)c1	-0.8	-12
O=C(Nc1ccc(F)c(Cl)c1)N1CC=C(c2c[nH]c3ccccc23)CC1	0.2	-9
CCCCC(=O)OCc1cc(=O)n2nc(C3CCCCC3)sc2n1	0.9	-22
CCSc1nc(-c2ccc(OC)cc2)nc2c1Cc1c(CO)cnc(C)c1O2	-0.2	-12
COCCN1CCc2nc(SCC(=O)Nc3ccc(C)c(Cl)c3)[nH]c(=O)c2C1	-1.1	13
Cc1ccc(NC(=O)Cn2c(=O)oc3cc(S(=O)(=O)N4CCCCCC4)ccc32)cc1Cl	1.0	29
Cc1ccc(NC(=O)Cn2cc(C(=O)c3cccs3)c3ccccc32)cc1C	1.4	u
CC(=O)N1CCc2cc(S(=O)(=O)NC(C(=O)Nc3ccc(C)cc3C)C(C)C)ccc21 (stereo not given)	-1.0	19
COc1ccc(S(=O)(=O)c2c(Nc3cccc(C)c3C)sc(C(=O)c3ccccc3)c2N)cc1	2.8	27
COC(=O)c1ccc(NC(=O)C2(S(=O)(=O)c3ccc(C)cc3)CC2)cc1	4.3	54
CCN(Cc1ccccc1)C(=O)c1cc2c(s1)-c1c(C)cccc1OC2	1.1	-1
O=C(CSc1nc2c([nH]c3ccccc32)c(=O)n1-c1ccc(F)cc1)NCC1CCCO1 (stereo not given)	1.7	-19
COc1ccccc1NC(=O)c1cc(S(=O)(=O)NCCC2=CCCCC2)ccc1F	0.3	-6
CCCOc1ccc(CNC(=O)c2ccc(-n3c(C)cc4c3CCC(C)C4)cc2)cc1 (stereo not given)	0.2	-18
COC(=O)c1scc(-c2ccc(C)cc2)c1S(=O)(=O)N1CCN(c2ccc(C)cc2C)CC1	-0.3	19

Already shown: an excerpt of the list.
Structure	TRPML1 ag	TRPML1 blocker
CCSc1nc(-c2ccc(OC)cc2)nc2c1Cc1c(CO)cnc(C)c1O2	-0.2	-12
COCCN1CCc2nc(SCC(=O)Nc3ccc(C)c(Cl)c3)[nH]c(=O)c2C1	-1.1	13
Cc1ccc(NC(=O)Cn2c(=O)oc3cc(S(=O)(=O)N4CCCCCC4)ccc32)cc1Cl	1.0	29
Cc1ccc(NC(=O)Cn2cc(C(=O)c3cccs3)c3ccccc32)cc1C	1.4	u
CC(=O)N1CCc2cc(S(=O)(=O)NC(C(=O)Nc3ccc(C)cc3C)C(C)C)ccc21 (stereo not given)	-1.0	19
COc1ccc(S(=O)(=O)c2c(Nc3cccc(C)c3C)sc(C(=O)c3ccccc3)c2N)cc1	2.8	27
COC(=O)c1ccc(NC(=O)C2(S(=O)(=O)c3ccc(C)cc3)CC2)cc1	4.3	54

Following part:
Structure	TRPML1 ag	TRPML1 blocker
CCc1ccc(N2C(=O)CSC23C(=O)N(Cc2ccc(C)cc2)c2ccccc23)cc1 (stereo not given)	1.4	1
COc1ccc(S(=O)(=O)NCCc2sc3nc(-c4ccc(C)cc4)nn3c2C)cc1C	6.2	-17
CC(C)(C)OC(=O)N1CCC(c2c(C(=O)NCc3ccc4c(c3)OCO4)cnn2-c2ccccc2Cl)CC1	0.2	-6
Cc1ccc(CNC(=O)c2cc(Sc3ccc(F)cc3F)nc3ccccc23)cc1	0.8	-18
COCCNc1nc(NCc2cccc(Cl)c2)c2cnn(C)c2n1	1.8	20
O=[N+]([O-])c1ccc(O)c(-c2ccnc3cc(-c4ccccc4)nn23)c1	0.1	2
CCOc1ccc(-c2cc(CCCC(=O)NCCc3ccc(SC)cc3)no2)cc1	-0.2	20
O=c1c2oc3ccccc3c2n(Cc2ccccc2Cl)c(=O)n1Cc1ccc2c(c1)OCO2	-0.7	-5
COc1ccccc1NC(=O)NCCCN1CCN(c2ccc(F)cc2)CC1	-0.1	-20
CCOc1ccc(NC(=O)CC2C(=O)N(c3ccc(C)cc3)C(=O)N2Cc2ccc(OC)cc2)cc1 (stereo not given)	0.6	4
COc1ccc(N2CC3=C(C2=O)C(c2ccc(Br)cc2)NC(=O)N3C)cc1 (stereo not given)	0.9	-5
Cc1ccc(-n2ccnc(NCc3ccccc3)c2=O)cc1C	1.5	-11
Cc1ccc(-n2ncc3c(N4CCN(C)CC4)ncnc32)cc1	1.7	-1
CC(C)CCNC(=O)c1cccc(Nc2nc3ccccc3n3nnnc23)c1	-0.8	-7
COc1ccccc1NC(=O)C1=C(C)Nc2nc(SCc3ccccc3)nn2C1c1ccccn1 (stereo not given)	-0.1	28
CCOc1ccc(NC(=O)C2CCN(S(=O)(=O)c3c(C)noc3/C=C/c3cccs3)CC2)cc1	1.7	-4
COc1ccc(-n2ncc(C(=O)N3CCOCC3)c2C2CCN(C(=O)OC(C)(C)C)CC2)cc1	-0.3	13
CCOC(=O)c1ccc(N2C(=O)c3n[nH]c(C)c3C2c2ccc(OCC)cc2)cc1 (stereo not given)	3.2	-7
Cc1ccc(NC(=O)C2CCN(C(=O)c3cnn(-c4ccccc4)c3-n3cccc3)CC2)cc1	-0.5	-10
COc1ccc2nc(NC(=O)c3cc(=O)c4ccccc4o3)sc2c1	-1.0	12
COc1ccc(Cn2ccnc2SCC(=O)Nc2ccc3c(c2)OCCO3)cc1	1.2	25
Cc1ccc(NC(=O)c2cc3c(=O)n(Cc4ccco4)ccc3nc2C)cc1C	1.7	-10
CCc1cccc(C)c1Nc1c(-c2ccc(N3CCOCC3)cc2)nc2ncccn12	2.1	-10
O=C(CSc1nnc(-c2ccc3c(c2)OCO3)o1)Oc1ccccc1	0.5	9
CCOC(=O)c1c(C)[nH]c(C)c1S(=O)(=O)NCC(=O)N1CCN(c2ccccc2OC)CC1	-0.8	19
CCOc1ccc(N(CC)S(=O)(=O)N2CCCC(C(=O)Nc3ccc(OC)c(Cl)c3)C2)cc1 (stereo not given)	0.3	-10
COCCNC(=O)C1CCN(S(=O)(=O)c2ccc3c(c2)CCCN3C(C)=O)CC1	0.1	-23
CC1=C(C(=O)Nc2ccc(Cl)cc2)C(CC(C)C)n2nc(SCc3ccccc3C)nc2N1 (stereo not given)	-0.1	-10
Cc1ccc(OCC(=O)Nc2nonc2-c2ccc(Br)cc2)cc1C	0.4	26
CC(C)(C)C1CCc2nc(NC(=O)Cc3ccccc3)sc2C1 (stereo not given)	0.9	6
Cc1cccc(CSc2nc(-c3cccc(C)c3)nc3c2Cc2c(CO)cnc(C)c2O3)c1	0.1	-15
Cc1ccc(Cl)cc1NC(=O)NCc1cccn1Cc1ccc(F)cc1	2.6	u
Cc1ccc(NC(=O)N2CCC3(CC2)Oc2ccccc2C(=O)N3Cc2ccc(F)cc2)cc1	-0.7	12
COc1ccc(-n2nc(C(=O)NCCc3ccc(Cl)cc3)c3c4ccccc4n(C)c3c2=O)cc1	3.1	18
Cc1ccc(NS(=O)(=O)c2ccc(-c3cc(C)no3)cc2)c(C)c1	-0.8	6
CC(C(=O)Nc1ccc(F)c(Cl)c1)N1Cc2ccccc2C1=O (stereo not given)	0.7	11
COc1ccc(-c2nnn3c2nc(N2CCCC(C)C2)c2ccccc23)cc1 (stereo not given)	-0.2	-10
Cc1ccc(-n2c(=O)[nH]c3sc4c(c3c2=O)CCNC4)cc1C	-0.5	-6
COc1ccc(-c2cc(-c3ccccc3)c(C#N)c(SCC(O)CS(=O)(=O)Cc3ccccc3)n2)cc1 (stereo not given)	1.7	-21
Cc1ccc(OCC(=O)Nc2ccc(OCc3cc(=O)n4ccsc4n3)cc2)cc1C	-0.8	-10
CCN1CCN(CCCNC(=O)c2cnn(-c3ccccc3)c2C2CCN(C(=O)OC(C)(C)C)CC2)CC1	-0.1	-9
CCCSc1oc(-c2cccs2)nc1S(=O)(=O)c1ccc(C)cc1	-0.6	-5
CCOC(=O)c1cnn2c(C(F)(F)F)cc(-c3ccc(Br)cc3)nc12	1.7	-11
CC(=O)N1CCc2cc(CNC(=O)Nc3cc(Cl)ccc3C)ccc21	0.6	-18
COc1cccc(C2C(=O)N(C3CCCCC3)CC(=O)N2Cc2ccc(Cl)cc2)c1 (stereo not given)	-0.6	10
COc1ccc(NC(=O)CSC2=Nc3ccccc3C3=NC(CC(=O)NCc4ccc5c(c4)OCO5)C(=O)N23)cc1 (stereo not given)	1.2	18
Cc1ccc(C)c(N2CCN(C(=O)C3CCCN(S(=O)(=O)c4ccc5c(c4)oc(=O)n5C)C3)CC2)c1 (stereo not given)	-0.6	14
Cc1cccc(N2CCN(C(=O)C3CCN(Cc4nc(-c5ccc(Cl)cc5)oc4C)CC3)CC2)c1C	-0.5	16
COc1cccc(Cn2c(CNS(=O)(=O)c3ccc(C(C)(C)C)cc3)nc3cccnc32)c1	0.4	1
O=C(COc1ccc(F)cc1)Nc1ccccc1C(=O)OCc1cc(=O)n2nc(C3CC3)sc2n1	-0.7	1
COc1ccccc1N1CCN(c2ccc(=O)n(CC(=O)NCc3ccc(F)cc3)n2)CC1	0.6	19
CC(=O)c1cccc(NC(=O)c2sc(-n3nc(C)c(Cc4ccccc4)c3C)nc2C)c1	0.4	22
Cc1cn(S(=O)(=O)c2ccc(F)c(Cl)c2)cn1	-0.8	1
Cc1ccc(Nc2ncc(C(=O)N3CCN(c4cccc(Cl)c4)CC3)c3ccccc23)cc1Cl	0.6	-10
Cc1cccc(NC(=O)CN(C)S(=O)(=O)c2ccc3c(c2)c(=O)n(C)c(=O)n3C)c1	0.0	-10
COc1cc(C(=O)NCC(c2ccc(N(C)C)cc2)N2CCCC2)cc(OC)c1OC (stereo not given)	-0.1	-7
COCCNC(=O)Cn1c(-c2cccs2)cc2cc(Cl)ccc21	0.8	11
Cc1ccc(C(c2sc3nc(-c4ccco4)nn3c2O)N2CCOCC2)cc1 (stereo not given)	4.9	20
COc1cccc(-c2nc(CS(=O)(=O)CC(=O)NCCc3ccc(Cl)cc3)c(C)o2)c1	0.0	1
CC1=C(C(N)=O)C(c2cccc(O)c2)n2ncnc2N1 (stereo not given)	0.6	0

Other results follow.
Structure	TRPML1 ag	TRPML1 blocker
COc1ccc(OC)c(NC(=O)N(C)CCc2c(C)nn(C)c2C)c1	-1.1	5
Cc1ccc(Cl)cc1NC(=O)c1sc(-n2nc(C)c(Cc3ccc4c(c3)OCO4)c2C)nc1C	-0.1	6
CCc1cccc(NC(=O)C2CCN(S(=O)(=O)c3cccc(-c4noc(C)n4)c3)CC2)c1	2.2	9
COc1ccc(NC(=O)CC2C(=O)N(c3ccc(C)cc3)C(=O)N2Cc2ccc3c(c2)OCO3)cc1 (stereo not given)	0.8	-26
COc1ccc(Cl)cc1NC(=O)Cn1cc2c(n1)CCC(C)C2 (stereo not given)	-0.9	-4
CSc1nc(NCCOC(C)=O)c(C#N)c(-c2ccc(C(C)(C)C)cc2)n1	-0.4	-18
O=C1COc2cc(S(=O)(=O)CCC(=O)NC3CCCCC3)c(Cl)cc2N1	1.4	10
COc1ccc(C2CC(=O)c3cc(-c4nc(-c5cccc([N+](=O)[O-])c5)cs4)c(=O)n(-c4ccccc4)c3C2)cc1 (stereo not given)	-0.2	27
Cc1ccccc1NC(=O)c1nc(-c2ccncc2)no1	0.1	15
COc1ccc(N2C(=O)C(CC(=O)Nc3ccccc3)N(CCC3=CCCCC3)C2=O)cc1 (stereo not given)	2.4	-5
O=C(c1ccc2c(c1)CCN2S(=O)(=O)c1ccccc1)N1CCN(c2cccc(Cl)c2)CC1	-0.5	0
CCc1ccc(OCC(=O)N(Cc2ccco2)Cc2ccco2)cc1	3.2	-14
CCOC(=O)c1ccc(NS(=O)(=O)c2ccc3c(c2)OCCO3)cc1	0.2	13
CCN(C(=O)Cn1nc(Cc2cccnc2)c2ccccc2c1=O)c1cc(C)ccc1C	-0.3	-17
COc1cc(OC)c(NC(=O)c2cnn(-c3ccccc3)c2-n2cccc2)cc1Cl	-0.6	-11
